# Compound activity from PubChem.
# INS promoter inh: TRM-6 insulin promoter activity inhibition; actives 0.9% (n = 130,000); TRM-6 cells (human fetal islet line), insulin promoter-eGFP reporter, imaging; reporter expression induced with tamoxifen; AID 1273; inhibition, % at 2 µM;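 active means inhibition above the mean plus 3 SD, with well images judged a real hit on visual review, cut at about 60% in these data, passing the limit was not always enough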
# PKD1 kinase inh: PKD1 (human) kinase inhibition. inhibition, %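 (about 10 µM by stock and volumes)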. PKD1 kinase fluorescence polarization assay. actives 0.056% (n = 200,000). Q15139;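 active means inhibition of 50% or more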;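 further: controls were vehicle for no effect and a reference inhibitor for full effect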
# HSV replic up: increases HSV replication in cells | HSV replication augmentation in cells, fold increase | maximum fold increase | actives 0.005% (n = 220,000);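 active means peak rise of 1.5-fold or more in the series; tested in PC3 cells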;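 further: first round at 10 µM; read as green reporter fluorescence; hits show the peak of a series up to 25 µM; 1 = signal of infected wells without compound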
# RGS16-Gao HTS: RGS16-Galphao interaction regulator (human); O15492+P09471; actives 0.38% (n = 220,000); bead-based flow cytometry RGS16-Galphao binding, fluorescence; actives lie on both sides; binding response (% of control), % at 10 µM;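 active means below 25% or above 175%, edge rows of some plates excepted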;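 further: Galphao activated by GDP with aluminum fluoride before binding; 100% = wells without compound and 0% = beads without RGS; some results beyond the cut were filed as inactive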
# Target sequence (O15492 whole entry, looked up): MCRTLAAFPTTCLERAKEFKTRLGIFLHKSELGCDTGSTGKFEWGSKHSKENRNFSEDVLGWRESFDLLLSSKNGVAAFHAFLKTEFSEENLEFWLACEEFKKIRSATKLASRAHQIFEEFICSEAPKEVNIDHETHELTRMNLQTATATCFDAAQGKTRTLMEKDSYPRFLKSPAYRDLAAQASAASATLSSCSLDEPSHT
# Target sequence (P09471 whole entry, looked up): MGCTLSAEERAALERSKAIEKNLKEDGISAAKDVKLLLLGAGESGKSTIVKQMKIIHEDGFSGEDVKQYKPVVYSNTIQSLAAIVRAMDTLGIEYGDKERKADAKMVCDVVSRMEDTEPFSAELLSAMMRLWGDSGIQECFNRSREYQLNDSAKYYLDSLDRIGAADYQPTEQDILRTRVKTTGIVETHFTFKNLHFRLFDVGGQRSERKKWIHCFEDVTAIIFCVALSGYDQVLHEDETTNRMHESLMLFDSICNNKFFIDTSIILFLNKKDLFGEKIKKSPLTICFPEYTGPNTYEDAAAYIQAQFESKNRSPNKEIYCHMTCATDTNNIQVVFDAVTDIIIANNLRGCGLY
# GALR2 agonist: GALR2 (human) receptor agonism; GALR2-expressing cells, agonist activation read-out; O43603; activation, %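 (tested at 5 µM)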; AID 803; actives 0.48% (n = 140,000);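 active means above mean plus 3 SD of all compounds, about 5% in these data, not always enough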;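 further: 0% = vehicle buffer wells and 100% = reference agonist at full effect; tested in CHO reporter cells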
# Target sequence (O43603 whole entry, looked up): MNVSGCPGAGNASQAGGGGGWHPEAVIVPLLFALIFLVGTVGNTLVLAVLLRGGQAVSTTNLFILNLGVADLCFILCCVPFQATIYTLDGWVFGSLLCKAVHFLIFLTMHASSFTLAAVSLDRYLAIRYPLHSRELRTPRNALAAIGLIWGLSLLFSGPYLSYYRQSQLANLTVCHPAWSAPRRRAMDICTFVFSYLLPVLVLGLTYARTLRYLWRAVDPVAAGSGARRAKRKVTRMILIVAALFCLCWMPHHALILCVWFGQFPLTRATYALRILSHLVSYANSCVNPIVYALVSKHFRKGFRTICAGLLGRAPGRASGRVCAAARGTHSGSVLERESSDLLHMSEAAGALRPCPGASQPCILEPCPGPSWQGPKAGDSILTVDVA
# INS promoter inh cell count: recorded beside INS promoter inh, whose call it bears; normalized cell count, %; measured here: cell count, toxicity; reference of the scale not given here;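 cells exposed to compound for 48 h; stained nuclei by imaging scaled within each plate; lower means fewer cells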
# HSV replic up primary fold: recorded beside HSV replic up, whose call it bears; fold increase; compound at 10 µM; measured here: primary screen fold increase 10 uM; tested in PC3 cells;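 GFP signal in the first replicate; 1 = infected wells without compound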
# The depositor's hits bear a star; i = inactive; . = no result given; [ ] = another dose, or the depositor's remark.
SMILES,INS promoter inh,INS promoter inh cell count,PKD1 kinase inh,HSV replic up,HSV replic up primary fold,RGS16-Gao HTS,GALR2 agonist
CCC(=O)N(CCC(c1ccco1)C(C)C)Cc1ccccc1 (configuration not stated),.,.,.,i,1.2,104,.
O=C(O)c1ccccc1-c1nc2ccccc2[nH]1,.,.,-4,i,1,101,.
Cn1ccnc1SCC(=O)c1cc2ccccc2o1,-27,49,-5,i,0.99,81,-0.7
Cc1nc2cc(N3CCCCC3)c(NC(=O)c3cccnc3)cc2c(=O)n1Cc1ccccc1,50,105,-1,i,0.64,99,-1.4
COc1ccc(-c2ccc(CCC(=O)O)n2NC(N)=O)cc1,.,.,.,i,1,99,.
CN(C)c1nc(NCc2ccccc2)nc(N/N=C/c2ccccc2F)n1,-12,177,0,i,1,105,.
COC(=O)c1cc(C#N)c(NCc2ccc(Cl)cc2Cl)nc1C,3,82,-9,i,0.83,88,-2.5
O=C(/C(C=Nc1ccc(Br)cc1)=C(/O)c1ccco1)C(F)(F)F,.,.,7,i,1.1,100,-0.2
O=[N+]([O-])c1ccc(N2CCCCC2)cc1SCCO,.,.,-6,i,0.83,105,.
COc1ccc(-c2nnn(CCC(=O)O)n2)cc1,-31,198,0,i,1.1,97,-3.2
COc1cc2c(cc1OC)C(c1cccc([N+](=O)[O-])c1)N(C(=O)c1ccccc1C(=O)O)CC2 (configuration not stated),.,.,5,i,0.91,100,.
COc1ccc(/C=N/N2CCOCC2)cc1Cn1cc([N+](=O)[O-])cn1,.,.,.,i,0.94,90,.
Cc1ccnc(NS(=O)(=O)c2ccc(NC(=O)C3COc4ccccc4O3)cc2)n1 (configuration not stated),36,87,5,i,0.93,117,.
CSc1ccc(Cl)c(C(=O)NC2CCCC2)c1,42,78,-3,i,0.98,99,-0.6
Cc1nnc(SCC(=O)N2CCc3ccccc3C2)s1,10,83,-1,i,1.2,105,-1.6
COc1ccc(N/N=C(/C#N)S(=O)(=O)c2nsc(C)c2C#N)cc1,-18,112,-2,i,1,103,-2.7
Cc1ccc2c(COn3nnc4ccc(S(=O)(=O)N(C)C)cc43)cc(=O)oc2c1C,8,113,-8,i,1.1,113,-1.8
O=C(Oc1ccnc2cc(Cl)ccc12)N1CCOCC1,30,136,5,i,1,101,-1.4
C/C(=N\NC(=O)c1cc(-c2ccc(C)s2)[nH]n1)c1ccco1,.,.,4,i,0.79,104,0.1
COc1ccccc1CCc1nnc(CCC(=O)NCC(C)Oc2cccnc2)o1 (configuration not stated),.,.,0,i,0.93,97,.
CCC(=O)N(Cc1cc(=O)[nH]c2ccccc12)c1ccccc1,.,.,.,i,0.98,100,.
CCCNC(=O)C12CCC(C)(C(=O)C1Br)C2(C)C (configuration not stated),6,107,0,i,1,128,0.4
CCn1c(NCc2ccc(N(C)C)cc2)nc2ccccc21,-24,67,-2,i,0.85,102,0.3
Cc1ccccc1/C(N)=N/OC(=O)N1c2ccccc2Sc2ccccc21,.,.,-1,.,.,100,-1.4
CCOC(=O)C1=C(C)N(c2ccc(C)cc2)C(=O)/C1=C\c1cccs1,3,143,-6,i,0.8,89,-4.1
CCOc1c(Cl)cc(C(=O)NCCN2CCCCC2)cc1Cl,-200,64,-6,i,0.83,100,-1.1
O=C(CCCSc1nc2ccccc2[nH]1)NCc1ccccc1F,-45,129,2,i,0.97,115,.
COc1ccc2c(C)cc(=O)oc2c1C,.,.,14,i,1,103,0.9
O=C(Nc1ccc(C(=O)N2CCOCC2)cc1)c1cnn2c(C(F)F)cc(-c3ccccc3)nc12,.,.,-5,i,0.82,100,.
CCOc1ccccc1C(=O)Nc1cccc(-c2ccc3nncn3n2)c1,0,118,-4,i,0.79,99,.
N#CC1=C(N)N(c2ccc(F)cc2)C(=O)C1,43,65,-2,i,0.89,151,4.8
CCN=C(NS(=O)(=O)c1ccc(Br)cc1)c1ccc(Cl)cc1,-43,56,-4,i,1,95,.
C/C(=N/N=C/c1ccc(N(C)C)cc1)c1ccccc1,0,64,-2,i,1.1,48,-1.4
COc1ccc(CC(=O)NC2CCN(CC(=O)N3CCCc4ccccc43)CC2)cc1OC,27,85,-8,i,1,100,-1.9
COC(=O)c1nn(-c2ccccc2)c(=O)cc1Oc1ccc(Cl)cc1,-7,129,-16,i,0.74,98,-1.6
Cc1ccc(-c2noc(C3CCCN(C(=O)c4ccc(F)cc4F)C3)n2)cc1 (configuration not stated),-18,75,-5,i,0.89,96,1.2
CC(/C=N/Nc1nnc2c(n1)[nH]c1ccccc12)=C\c1ccco1,.,.,-8,i,0.97,99,0.5
Cc1c(S(=O)(=O)Nc2cc(Cl)ccc2Cl)c(=O)n(C)c(=O)n1C,.,.,-5,i,1,106,-3.5
N#Cc1cc(S(=O)(=O)c2ccccc2)c(N)[nH]c1=O,12,57,-4,i,0.97,103,-1.7
CCCCNC(=O)CC(NS(=O)(=O)c1ccc(C)cc1)c1ccco1 (configuration not stated),.,.,-4,i,0.91,134,-2.3
CC1(C)NC(=O)N(CCCCOc2ccc(Cl)cc2)C1=O,23,128,5,i,1,101,-0.7
O=C(NCCNS(=O)(=O)c1ccccc1Cl)c1cc(OCC(F)(F)F)ccc1OCC(F)(F)F,-27,103,2,i,0.94,101,-1.0
N#Cc1ccc(-c2csc(NNC(=O)c3ccccc3)n2)cc1,-14,66,-11,i,0.89,97,-2.6
CC(=O)c1ccc(OCC(O)CN2CCN(CCN3C(=O)c4cccc5cccc(c45)C3=O)CC2)cc1 (configuration not stated),36,128,-7,i,0.59,99,2.2
CCCCSc1nc(NCc2ccco2)c2c3c(sc2n1)COC(C)(C)C3,-2,70,-11,i,0.85,99,-1.5
O=C(O)CCC(CNS(=O)(=O)c1ccccc1)C(F)(F)F (configuration not stated),-25,99,-3,i,0.99,109,.
CCN1CCN(c2cc(SC(C)C)nc(-c3ccc(OC)cc3)n2)CC1,.,.,0,.,.,93,2.4
CSCCC(NC(=O)c1cccc([N+](=O)[O-])c1)C(=O)O (configuration not stated),-33,105,0,i,1,187*[activator],-0.8
NC(=O)CSc1nnc(COc2ccccc2)n1Cc1ccco1,35,144,-5,i,0.99,102,.
Cc1cccc(-n2ncc3c(N4CCC5(CC4)OCCO5)ncnc32)c1,.,.,.,i,0.83,100,.
Clc1ccc(C2CSc3c4ncnc-4ncn32)cc1 (configuration not stated),.,.,.,i,1,101,.
COc1ccc2nc(NC(=O)CS(=O)(=O)Cc3ccccc3)sc2c1,.,.,-5,i,0.93,107,.
CC(=O)Nc1ccc(SCC(=O)N(C)C2CCS(=O)(=O)C2)cc1 (configuration not stated),33,146,1,i,1,101,.
COC(=O)c1ccc(-c2ccc(C(=O)N3CCCN(C)CC3)cc2)cc1,29,116,11,i,0.89,109,-0.6
Cc1c(NC(=O)Cc2ccccc2)cccc1C(=O)NN1C(=O)c2ccccc2C1=O,.,.,-1,i,1,100,0.9
O=C(Cn1cccc1C(=O)c1ccccc1)NCc1cccnc1,-100,109,-5,i,0.96,97,-1.6
Cc1cc(NS(=O)(=O)c2ccc(Cl)cc2)nn1CC(=O)NCc1ccco1,-25,94,-2,i,0.99,103,-2.2
CCOCCc1nnc(NC(=O)c2cc(OC)c(OC)c(OC)c2)s1,.,.,5,i,0.98,99,-1.7
O=C(Cc1ccccc1)Nc1cccc(C(=O)O)c1O,.,.,-1,i,0.92,99,.
CCc1c(C)nn(C(=O)/C(C#N)=C\N(C)C)c1C,-365,133,-2,i,1.1,94,.

# Profiles from above. Order of screens: INS promoter inh, INS promoter inh cell count, PKD1 kinase inh, HSV replic up, HSV replic up primary fold, RGS16-Gao HTS, GALR2 agonist
# Shown for Cc1cc(NS(=O)(=O)c2ccc(Cl)cc2)nn1CC(=O)NCc1ccco1 = -25, 94, -2, i, 0.99, 103, -2.2
# Shown for CCOCCc1nnc(NC(=O)c2cc(OC)c(OC)c(OC)c2)s1 = ., ., 5, i, 0.98, 99, -1.7
# Shown for Cc1cccc(-n2ncc3c(N4CCC5(CC4)OCCO5)ncnc32)c1 = ., ., ., i, 0.83, 100, .
# Shown for CCN1CCN(c2cc(SC(C)C)nc(-c3ccc(OC)cc3)n2)CC1 = ., ., 0, ., ., 93, 2.4
# Shown for CSCCC(NC(=O)c1cccc([N+](=O)[O-])c1)C(=O)O (configuration not stated) = -33, 105, 0, i, 1, 187*[activator], -0.8

# Quoted from the listing.
# RGS16-Gao HTS result of `O=C(Cc1ccccc1)Nc1cccc(C(=O)O)c1O` : 99
# INS promoter inh result of `Cc1cc(NS(=O)(=O)c2ccc(Cl)cc2)nn1CC(=O)NCc1ccco1` : -25
# INS promoter inh cell count result of `C/C(=N/N=C/c1ccc(N(C)C)cc1)c1ccccc1` : 64

# Next section.
SMILES,INS promoter inh,INS promoter inh cell count,PKD1 kinase inh,HSV replic up,HSV replic up primary fold,RGS16-Gao HTS,GALR2 agonist
CC(=O)NCC(=O)N(C)C(C(=O)Nc1ccc2c(c1)OCCO2)c1ccccc1 (configuration not stated),-1,130,-5,i,1.1,103,-1.1
CN1CCCN(C(=O)/C=C/c2ccc(F)cc2)CC1,.,.,-1,i,0.89,106,-0.1
COc1cc(C2Nc3cc(Cl)c(S(N)(=O)=O)cc3S(=O)(=O)N2)cc(OC)c1OC (configuration not stated),27,114,12,i,0.95,100,-1.2
Cc1cc(C)c2sc(NNC(=O)c3ccc(S(=O)(=O)N4CCc5ccccc5C4)cc3)nc2c1,50,105,-3,i,0.54,99,7.7*
C=C(C)CN1C(=O)C(O)(CC(=O)c2ccc3c(c2)OCCO3)c2ccccc21 (configuration not stated),33,152,-5,i,0.99,100,-1.7
Cc1ccc(Cn2nc(C)c(NC(=O)c3cc(C)no3)c2C)cc1,.,.,0,i,0.87,108,-0.9
CC1CCCC(C)N1C(=O)Cn1c(=O)sc2ccccc21 (configuration not stated),.,.,-10,i,0.98,98,.
COc1cccc(OCC(O)CN2CCN(c3ncccn3)CC2)c1 (configuration not stated),23,130,-10,i,0.84,106,-0.2
CCn1c(SC)nnc1-c1sc2cc(Cl)ccc2c1Cl,-290,58,-1,i,0.86,99,-1.3
Cc1ccc(S(=O)(=O)O/N=C2\CCCc3ccccc32)cc1,-11,199,0,i,1.1,98,-5.7
COC(=O)c1cccc(S(=O)(=O)N(Cc2ccco2)Cc2cc3cc(OC)c(OC)cc3[nH]c2=O)c1,-13,209,2,i,0.84,104,-1.9
CCCCC1(C)OC(=O)C(=Cc2c[nH]c3ccccc23)C(=O)O1 (configuration not stated),-56,129,-10,i,1,99,.
O=C(c1ccccc1)c1cc2ccc(O)cc2oc1=O,-22,82,-5,i,0.84,137,-0.7
C[N+]12CCC(CC1)C(OC(=O)C(O)(c1ccccc1)c1ccccc1)C2 (configuration not stated),24,136,-10,i,0.85,101,-1.1
O=C(CSc1nc2ccc([N+](=O)[O-])cc2s1)c1ccc2ccccc2c1,.,.,.,i,1.1,5.0*,.
O=C(CSc1nnc(-c2cccnc2)n1Cc1ccccc1)NCc1ccco1,.,.,-6,i,0.84,103,-2.2
Cc1ccc(O)c(-c2cc(-c3ccccc3F)[nH]n2)c1,19,181,-2,i,0.86,103,-4.2
CCOc1ccc(/C=N/OCC(=O)Nc2cc(C)on2)cc1,27,75,-2,i,0.94,104,0.0
CCCn1c(CNC(=O)c2cccs2)nc2ccccc21,.,.,4,i,0.91,69,-2.6
CCOc1ccc(OCC)c(NC(=O)CSCC(=O)O)c1,.,.,8,i,0.79,105,-0.3
O=C(NC1(C(F)(F)F)N=C2SCCN2C1=O)c1ccccc1F (configuration not stated),.,.,.,i,1.1,97,.
Cc1cccc(/C=C2/SC(=O)N(Cc3ccccc3)C2=O)n1,54,85,-1,i,0.97,104,0.2
O=C(CCCn1cc([N+](=O)[O-])cn1)N1CCCCC1,.,.,2,i,0.85,100,.
O=C(N/N=C/c1cccc(F)c1)c1c(O)c2ccccc2[nH]c1=O,.,.,4,i,1.1,90,-0.4
O=C(CN1C(=O)c2ccccc2C1=O)Nc1ccccc1F,-3,42,-7,i,1,99,-1.9
O=C1c2ccccc2C(=O)N1c1ccc(S(=O)(=O)N2CCN(c3ccccc3)CC2)cc1,.,.,-1,i,0.96,103,-1.0

# 3 compounds out of the list above, ordered by the value under RGS16-Gao HTS, low to high:
SMILES | PKD1 kinase inh | HSV replic up | HSV replic up primary fold | RGS16-Gao HTS | GALR2 agonist
COc1ccc(-c2nnn(CCC(=O)O)n2)cc1 | 0 | i | 1.1 | 97 | -3.2
CCCCC1(C)OC(=O)C(=Cc2c[nH]c3ccccc23)C(=O)O1 (configuration not stated) | -10 | i | 1 | 99 | .
CCOc1ccc(OCC)c(NC(=O)CSCC(=O)O)c1 | 8 | i | 0.79 | 105 | -0.3
